# Bioassay records as filed in PubChem.
# GIV-Gai inh: blocks GIV peptide binding to rat Galpha-i3 | P08753 | Galpha-i3/FITC-GIV peptide fluorescence polarization, 90 min; active compounds read low; scaled: aluminum fluoride 0%, vehicle 100% | 210,000 tested, 0.42% active | percent of control (FP), % (test concentration not listed);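 active means replicate mean at 85% of control or lower, very high polarization wells dropped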;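 further: lower values mean more displacement of the GIV peptide from Galpha-i3; wells of about 15 µL received 100 nL stock; the first replicate is given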
# Target sequence (P08753 whole entry, looked up): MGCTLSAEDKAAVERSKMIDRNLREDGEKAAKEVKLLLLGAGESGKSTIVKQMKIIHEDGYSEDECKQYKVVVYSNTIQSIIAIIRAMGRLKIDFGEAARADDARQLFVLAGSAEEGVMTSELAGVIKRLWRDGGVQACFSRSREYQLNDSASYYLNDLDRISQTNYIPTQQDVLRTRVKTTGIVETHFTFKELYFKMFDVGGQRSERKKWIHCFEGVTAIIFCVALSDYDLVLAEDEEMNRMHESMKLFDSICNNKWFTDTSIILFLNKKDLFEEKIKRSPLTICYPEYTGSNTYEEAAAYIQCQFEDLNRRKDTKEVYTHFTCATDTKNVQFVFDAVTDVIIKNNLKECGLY
# Sa growth inh: blocks Staphylococcus aureus growth; S. aureus RN4220 growth, OD600, 20 h, 42 °C; active compounds read low; AID 720641; 170,000 tested, 0.53% active; relative growth, % (test concentration not listed);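 active means growth at 42 °C up to 50% and 20 or more points under that at 30 °C, or under 10% at both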;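 further: 300 nL library stock went into each well; scaled to the means of positive and negative controls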
# HCMV NEC inh: disrupts HCMV UL50-UL53 complex binding; HTRF UL50-UL53 interaction, normalized percent inhibition; inhibition, % (no concentration beside the values); 190,000 tested, 0.15% active; AID 1918969;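 active means both replicates at 50% or more, plus weaker picks with an unusually low signal ratio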;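 further: stock transfer was 100 nL into about 20 µL; 0% = negative control wells and 100% = wells with untagged competitor protein; inactives centre near -12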
# Sa growth inh second temp: second read-out of Sa growth inh, no call of its own (marks repeat the call); relative growth, %; measured here: growth at 30 °C;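 optical density after 20 h as mean of two plates; 100% = untreated growth and lower means inhibition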
# * marks the source's active call; other numbers are inactive results; . = not tested or not shown; & = joins results of further samples.
# A first look (19 entries):
SMILES,GIV-Gai inh,Sa growth inh,Sa growth inh second temp,HCMV NEC inh
N#CCSc1ncnc2sccc12,.,96,64,-36
COc1ccc(NC(=O)CC2C(=O)N(c3ccc(F)cc3)C(=O)N2Cc2ccco2)cc1 (stereo not given),104,93,81,.
CCc1cccc(NC(=O)CCN2C(=O)c3ccccc3Sc3ncccc32)c1,99,98,78,.
Cc1cccc(Oc2ncnc3sc(C)c(C)c23)c1,100,.,.,-23
COc1ccc(C2=C/C(=C/c3ccccc3)C(=O)O2)cc1,117,84,53,.
Cn1nc(-c2ccccc2)c(-c2ccccc2)c(C(=O)Nc2ccccc2C(N)=O)c1=O,104,98,84,-4
Cc1nc2nc3c(c(N4CCN(c5ccccc5F)CC4)n2n1)CCCC3,104,.,.,-19
CC(C)N1CCc2nc(SCC(=O)Nc3cccc(F)c3)[nH]c(=O)c2C1,100,102,96,-24
O=c1[nH]nc(SCCS(=O)(=O)c2ccc(F)cc2)n1C1CC1,104,87,91,-1
CCOC(=O)c1c(NC(=O)CCC(=O)O)sc(C)c1-c1ccccc1,98,87,82,.
CCCn1c(CN2CCC(C)CC2)nc2cc(NC(=O)CC(C)C)ccc21,101,.,.,-1
CC(C)NC(=O)c1ccc2c(c1)N(Cc1ccccc1F)C(=O)c1ccccc1S2(=O)=O,98,101,94,.
Cc1nnsc1C(=O)Nc1ccc(-c2cn3c(n2)SCC3)cc1,101,98,86,-5
CC(C)(C)c1nocc1C(=O)O/N=C(\N)c1ccccn1,105,106,100,-3
COc1ccc(N2C(=O)/C(=C/c3ccc(OCc4ccc(C(=O)O)cc4)c(OC)c3)C(=O)NC2=S)cc1,104,.,.,-23
CCC(C)NC(=O)CCc1c(C)nc2nc(-c3cc(OC)cc(OC)c3)nn2c1C (stereo not given),99,101,86,-21
Cc1ccc(Cl)cc1NC(=O)CCCn1nc(C)c2c(C)n(-c3ccccc3)nc2c1=O,98,.,.,-8
CCOc1ccccc1N(CC)C(=O)Cn1ncc2c1-c1ccccc1OC2,107,97,74,-15
Cc1ccc(S(=O)(=O)CCl)cc1,.,81,89,-10

# All compounds of this part, from the first entry:
SMILES,GIV-Gai inh,Sa growth inh,Sa growth inh second temp,HCMV NEC inh
N#CCSc1ncnc2sccc12,.,96,64,-36
COc1ccc(NC(=O)CC2C(=O)N(c3ccc(F)cc3)C(=O)N2Cc2ccco2)cc1 (stereo not given),104,93,81,.
CCc1cccc(NC(=O)CCN2C(=O)c3ccccc3Sc3ncccc32)c1,99,98,78,.
Cc1cccc(Oc2ncnc3sc(C)c(C)c23)c1,100,.,.,-23
COc1ccc(C2=C/C(=C/c3ccccc3)C(=O)O2)cc1,117,84,53,.
Cn1nc(-c2ccccc2)c(-c2ccccc2)c(C(=O)Nc2ccccc2C(N)=O)c1=O,104,98,84,-4
Cc1nc2nc3c(c(N4CCN(c5ccccc5F)CC4)n2n1)CCCC3,104,.,.,-19
CC(C)N1CCc2nc(SCC(=O)Nc3cccc(F)c3)[nH]c(=O)c2C1,100,102,96,-24
O=c1[nH]nc(SCCS(=O)(=O)c2ccc(F)cc2)n1C1CC1,104,87,91,-1
CCOC(=O)c1c(NC(=O)CCC(=O)O)sc(C)c1-c1ccccc1,98,87,82,.
CCCn1c(CN2CCC(C)CC2)nc2cc(NC(=O)CC(C)C)ccc21,101,.,.,-1
CC(C)NC(=O)c1ccc2c(c1)N(Cc1ccccc1F)C(=O)c1ccccc1S2(=O)=O,98,101,94,.
Cc1nnsc1C(=O)Nc1ccc(-c2cn3c(n2)SCC3)cc1,101,98,86,-5
CC(C)(C)c1nocc1C(=O)O/N=C(\N)c1ccccn1,105,106,100,-3
COc1ccc(N2C(=O)/C(=C/c3ccc(OCc4ccc(C(=O)O)cc4)c(OC)c3)C(=O)NC2=S)cc1,104,.,.,-23
CCC(C)NC(=O)CCc1c(C)nc2nc(-c3cc(OC)cc(OC)c3)nn2c1C (stereo not given),99,101,86,-21
Cc1ccc(Cl)cc1NC(=O)CCCn1nc(C)c2c(C)n(-c3ccccc3)nc2c1=O,98,.,.,-8
CCOc1ccccc1N(CC)C(=O)Cn1ncc2c1-c1ccccc1OC2,107,97,74,-15
Cc1ccc(S(=O)(=O)CCl)cc1,.,81,89,-10
Cc1ccc2nc(Sc3ccccc3)c(/C=C3\SC(=S)N(C)C3=O)c(=O)n2c1,-36*,119,81,.
COc1ccc(OC)c(NC(=O)CSc2nnc3c4c(C)c(C)sc4ncn23)c1,106,.,.,-22
CCCn1c(=O)n(CC#N)c(=O)c2c1nc(C(F)(F)F)n2CCOC,.,99,93,-9
Cc1cc(C)n(-c2nc(C)c(C(=O)NC(C)C)s2)n1,101,.,.,10
CCOc1ccc2c(c1)c(=O)c(C(=O)c1ccc(CC)cc1)cn2CC(=O)Nc1ccccc1C,104,123,98,-27
COc1ccc(OC)c(S(=O)(=O)Nc2ccc(-c3ccc(N4CCOCC4)nn3)cc2)c1,99,.,.,-46
COc1ccc(CCNC(=O)c2ccc3c(c2)ncn3-c2ccc(C)cc2C)cc1OC,105,108,63,.
CCN=c1scc(-c2ccccc2)n1/N=C/c1ccccc1O,.,91,91,-14
CC1CCN(S(=O)(=O)c2ccc(C(=O)Nc3nc4ccc(F)cc4s3)cc2)CC1,99,96,91,.
Cc1cccc(Nc2nnc(-c3ccc(C)c(S(=O)(=O)N4CCN(C)CC4)c3)c3ccccc23)c1,111,96,105,-21
O=C(COC(=O)c1ccc2c(c1)OCCO2)Nc1ccc(N2CCOCC2)cc1,.,91,100,-6
CC(C)C(=O)Nc1c(C(N)=O)oc2ccccc12,99,89,79,-31
N#C/C(=C\C=C\c1ccccc1)c1cccc(C(F)(F)F)c1,101,79,97,3
COC(=O)c1ccc(-n2cccn2)cc1,107,104,99,-3
CCSc1ccc2nnc(CCNC(=O)c3ccccc3)n2n1,105,104,85,.
CNc1sc2c(O)cc(=O)[nH]c2c1C#N,123,101,57,-30
COc1cc(NC(=O)c2cc3c(=O)n(Cc4ccco4)ccc3nc2C)cc(OC)c1OC,96,83,83,.
CC(=O)N1CCc2cc(S(=O)(=O)C(C)CC(=O)N(C)c3ccc(C)cc3)ccc21 (stereo not given),106,100,87,-20
COc1ccc(NC(=O)CSc2ccc3ccccc3n2)cc1,.,105,87,-7
Cc1ccc(CN(Cc2ccco2)C(=S)Nc2ccccc2C)cc1,106,88,98,7
COc1cc(/C=C(\C#N)C(=O)OC(C)C)ccc1O,.,86,87,-66
COc1ccc(Cn2cc(C(=O)c3ccc(F)cc3)c(=O)c3cc4c(cc32)OCCO4)cc1,101,88,86,-14
NC(=O)c1cc2cc(F)ccc2[nH]1,104,86,72,-24
O=C(O)c1c(NC(=O)C2CCCC2)sc2c1CCC2,.,165,70,-19
Cc1csc(-c2snnc2C)n1,98,103,80,-68
Cc1ccccc1Nc1cc2ccccc2c(=O)[nH]1,88,86,34,58*
CCNc1nc(Oc2ccc(OCC)nn2)nc(N2CCOCC2)n1,100,84,88,0
CC(=O)Nc1ccc(Nc2cc(Cl)c(S(=O)(=O)C(F)(F)F)cc2S(=O)(=O)C(F)(F)F)cc1,.,101,105,16
O=C(NCCc1ccccc1)NCCN1CCN(c2ccccc2)CC1,102,104,92,6
O=C(Nc1ccc2nc(NC(=O)c3ccccc3)sc2c1)c1ccc(Cl)cc1,106,.,.,10
CCn1ccc2cc(S(=O)(=O)N3CCC(C(=O)NCc4ccc(OC)cc4)CC3)ccc21,100,98,86,.

# Going on with the list.
SMILES,GIV-Gai inh,Sa growth inh,Sa growth inh second temp,HCMV NEC inh
O=C(Cc1ccccc1)N1CCN(c2nc3ccccc3o2)CC1,.,94,69,-11
Cn1cnc(S(=O)(=O)Nc2ccc(F)c(F)c2)c1,99,.,.,-12
COc1ccc(C(=O)NCC(c2cccnc2)N2CCc3ccccc3C2)cc1 (stereo not given),106,92,82,-18
CCc1cccc(NC(=O)Cn2c(=O)n(Cc3ccccc3)c(=O)c3c2c2cc(OC)ccc2n3C)c1,103,110,86,.
CCOC(=O)c1c(C)[nH]c(C)c1S(=O)(=O)N1CCCC(C(=O)N2CCN(c3ccccc3)CC2)C1 (stereo not given),104,123,86,.
COc1cc(C)ccc1OCC(=O)NC(C)C,.,83,93,-19
O=C(CSc1nccn1Cc1ccc(Cl)cc1)NCc1ccccc1,96,101,94,.
CCOc1cccc(CNC(=O)c2ccc(N3CCCC3)c(NC(=O)NCc3ccccc3)c2)c1,102,83,89,.
COc1ccc(COCC(O)CN2CCCC(C)C2)cc1OC (stereo not given),.,109,98,10
C#CC1(O)CC(C)(C)NC(C)(C)C1,98,92,89,-15
CCN(Cc1ccccc1)C(=O)C1CCN(Cc2cc(Br)c(O)c(OC)c2)CC1,97,92,81,14
O=C(CCS(=O)(=O)Cc1ccccc1)Nc1nccs1,101,83,91,-24
O=C(Cn1c(C(=O)NCC2CCCO2)cc2sccc21)c1ccccc1 (stereo not given),102,102,82,-1
COc1ccccc1-c1noc(CCC(=O)N2CCC(c3c[nH]c4ccccc34)(c3c[nH]c4ccccc34)CC2)n1,101,100,93,-6
CC(=O)N(c1ccc2oc(=O)sc2c1)S(=O)(=O)c1ccc(C)cc1,101,86,89,-34
CCOC(=O)c1nc(-c2cccs2)no1,100,104,110,4
CC(=O)N1c2ccccc2C(=O)C1N1CCN(c2cc(C)ccc2C)CC1 (stereo not given),108,95,86,-26
COc1ccccc1N1CCN(C(=O)CSc2nc3ccccc3nc2Cc2ccc(C)cc2)CC1,102,89,87,.
O=C1c2ccccc2C(=O)N2CC3(c4ccccc4)CN1CC(c1ccccc1)(C2)C3=O,103,86,81,-16
O=C(Nc1ccc(S(=O)(=O)N2CCCCC2)cc1)c1ccccn1,.,91,99,-7
COc1ccc(CN2CC(=O)N(c3ccc(Br)cc3)[C@@H]3CS(=O)(=O)C[C@@H]32)cc1,104,.,.,-6
O=C(COc1ccccc1)Nc1cccc(-c2cn3cccnc3n2)c1,110,55,46,.
CCN(CC)S(=O)(=O)c1cccc(C(=O)N[C@H](C(=O)Nc2ccc3c(c2)OCCO3)C(C)C)c1,.,103,94,-6
CSc1sc(C(=O)O)c2c1C(=O)CC(C)(C)C2,105,97,86,-114
CSC(=NCCC1CC1(Cl)Cl)NC#N (stereo not given),100,87,76,-24
CCCCN(C)C(=O)C1CCCN(c2ccc(-c3ccc(C)cc3)nn2)C1 (stereo not given),98,.,.,-55
N/C(CN1CCCC1=O)=N\O,99,100,96,-28
c1ccc2oc(-c3csc(NCC4CCCO4)n3)cc2c1 (stereo not given),.,84,82,-50
COC(=O)c1cn(-c2ccccc2)c(=O)c2ccccc12,106&104,.,.,-6
CC(=O)Oc1c2c(c[n+](C)c1C)COC(C)(C)OC2,96,121,93,.
CC(C(=O)NCc1ccc2c(c1)OCO2)N1CCN(c2ccccc2F)CC1 (stereo not given),.,94,90,-20
CCOC(=O)c1c(SC)nc2c(C(F)(F)F)cccc2c1Oc1ccc(OC)cc1,109,79,87,-36
CC(C)(CNC(=O)Cc1ccsc1)N1CCOCC1,.,95,93,-12
CCCC1=C(C(=O)OCC)C(c2ccc(NC(C)=O)cc2)NC(=O)N1 (stereo not given),108,96,96,-10
O=C(Nc1cccc(-c2cnco2)c1)c1ccc(C(F)(F)F)cc1,105,91,83,-21
N#C/C(=C\c1ccc(/C=C(\C#N)S(=O)(=O)c2ccccc2)cc1)S(=O)(=O)c1ccccc1,105,92,89,-31
c1ccc(Sc2ncnc3ccsc23)nc1,99,96,89,-28
CN(C)c1ccc(C(=O)NCCN2C(=O)S/C(=C\c3ccc4c(c3)OCO4)C2=O)cc1,.,101,90,2
O=C(NCCc1nc2ccccc2[nH]1)c1ccc(F)cc1,108,118,96,-24
Nc1[nH]nc2nc(N3CCCCC3)nc(-c3ccccc3)c12,105,100,94,-2
CC(=O)c1ccc(NC(=O)CSc2nnc3ccc(-c4ccc(Cl)cc4)nn23)cc1,101,133,88,.
CCNc1cc(N)[n+](CC)c2n[nH]c(/N=C/c3cc(Cl)cc(Cl)c3O)c12,178,98,95,-1
C#CCN1CC(OCC)=CC1=O,121,89,87,-32
O=C1OC(c2ccccc2)=N/C1=C\C=C\c1ccccc1,105,67,85,.
CCOc1ccc(-n2c(SCC(=O)NC3CCCCC3)nc3c([nH]c4ccccc43)c2=O)cc1,101,119,90,.
COc1ccc(C(=O)Nc2cc3cc(Cl)ccc3oc2=O)cc1OC,101,104,85,-42
Cc1ccc(CNC(=O)CC2CCCC2)cc1,.,105,99,-1
Cc1nc2sccn2c(=O)c1S(=O)(=O)Nc1ccc(N2CCN(S(C)(=O)=O)CC2)cc1,110&102,88,93,2&1
O=C(CC1Sc2ccccc2NC1=O)Nc1cccc(F)c1 (stereo not given),100,.,.,-8
CCCNS(=O)(=O)c1ccc2c(c1)SCC(=O)N2,100,79,76,.

# Compounds as they come. Share with any hit: about 0.83%.
